Screens deposited in PubChem BioAssay by ICCB-Longwood Screening Facility, Harvard Medical School.
BasE inh: BasE siderophore enzyme inhibitors, primary screen, biochemical, Acinetobacter baumannii ATCC 17978, fluorescence polarization. purified BasE, fluorescence polarization binding displacement. inhibition, % (test concentration not listed). actives 0.1% (n = 84,000). AID 485350, 2010;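 active = both replicates above 25% with normal brightness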;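 note: 0% = negative plate control signal and 100% = positive plate control signal; stock transfer was 100 nL into about 30 µL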
LANA-nucl inh: inhibitors of KSHV LANA-nucleosome binding, primary screen, biochemical, fluorescence polarization, FITC-LANA1-23, chicken nucleosomes. z-score (concentration not given with the values). actives 0.3% (n = 51,000). AID 720717, 2013. FITC-LANA1-23 / chicken nucleosome fluorescence polarization; hits give low values;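 active = both repeat wells score below -2 in polarization z-score versus plate sample wells, excluding overly bright wells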;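 note: 100 nL library stock added to about 30 µL; numbers are from one replicate; some results filed as inactive read as strong as hits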
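Test system: purified chicken nucleosomes with FITC-labelled LANA N-terminal peptide (1-23); Input: 240 nM purified chicken nucleosomes (480 nM peptide binding sites), final; Medium: TEN-BT buffer, pH 7.5; Timing: 10–45 min, room temperature; Technique: fluorescence polarization, 480 nm excitation, 535 nm parallel and perpendicular emission; Replication: duplicates.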
The depositor's hits bear a star; / = not tested or not shown; & = joins results of further samples.

Sample of the layout:
Order of values: BasE inh	LANA-nucl inh
> Cc1ccccc1Nc1nc(N)nc(-c2cc3ccccc3o2)n1
 : 1.3	-0.18
> CCOCc1cnc(C)nc1NCC(=O)c1c(C)[nH]c2cc(C)ccc12
 : 1.1	/

Main list, from the start:
Order of values: BasE inh	LANA-nucl inh
> Cc1ccccc1Nc1nc(N)nc(-c2cc3ccccc3o2)n1
 : 1.3	-0.18
> CCOCc1cnc(C)nc1NCC(=O)c1c(C)[nH]c2cc(C)ccc12
 : 1.1	/
> CCN(C(=O)CSc1nnc(C)s1)c1ccccc1
 : 2.2	-0.26
> CCCN(CC1CC1)Cn1ncn(-c2ccccc2)c1=S
 : 2.2	/
> COc1ccc(-c2nnc(SCC(=O)OC3CC(C)CCC3C(C)C)o2)cc1 (stereo not given)
 : -0.7	/
> COc1cc2c(cc1OC)C(c1cc(Br)ccc1O)N(C)CC2 (stereo not given)
 : 2.8	0.76
> O=C(Cn1nc(-c2ccco2)ccc1=O)NC1CCCCC1
 : 0.6	0.14
> COC(=O)c1cc(C(=O)c2cc(Br)ccc2O)coc1=N
 : -0.1	/
> CCOC(=O)N1CCC(NC(=O)Nc2cn(C)c(=O)c3ccccc23)CC1
 : 1.6	-0.28
> C=CCn1c(C(C)Oc2ccc(Cl)cc2)n[nH]c1=S (stereo not given)
 : 0.7	-0.38
> CN(CCc1ccccn1)C(=O)Nc1ccccc1
 : 3.8	/
> CCOc1cc(/C=N/NC(=O)c2cccnc2)ccc1OCC(=O)N1CCCCC1
 : -0.6	/
> O=C(N/N=C/c1ccc(OC2CSC2)cc1)c1ccncc1
 : 3.0	-0.33
> CCCCN(C)C(=O)C1(c2ccc(OC)cc2)CCOCC1
 : -2.3	3
> O=C(O)c1cccc(NC2SC(=O)N(c3ccccc3)C2=O)c1 (stereo not given)
 : -0.9	0.52
> COC(=O)c1ccc(-c2ccco2)n1Cc1nc(-c2cccc(Cl)c2)oc1C
 : -4.6	3.2
> CCOc1ccc(C2Oc3nc(SC)nnc3-c3ccccc3N2C(=O)CC)cc1 (stereo not given)
 : 2.4	-0.41
> O=c1cc(NCc2ccccc2)c2ccccc2o1
 : 6.2	0.48
> Cc1cc(C)nc(NC(N)=NCc2cccnc2)n1
 : 9.2	-0.26
> CC(C)NC(=O)COn1nnc2ccc(S(=O)(=O)N(C)C)cc21
 : 2.6	/
> CCC(C)(C)NC(=O)CCc1ccc(S(=O)(=O)N2CCOCC2)cc1
 : -0.4	/
> O=C(Nc1ccccc1)Nc1ccc(Cl)cc1
 : 1.3	-0.32
> CCSc1nn(CC(=O)c2ccc(F)cc2)c(=N)s1
 : 0.2	/
> CCC(=O)NCc1ccc2c3c(cccc13)C(=O)N2
 : 0.8	/
> CC1=CC(O)(c2ccccc2)C(N2CCOCC2)N1O (stereo not given)
 : 3.2	-0.4
> c1nc(Sc2nnnn2C2CC2)c2ccsc2n1
 : -0.9	/
> CCc1cc(=O)n2[nH]c(C(F)(F)F)c(-c3ccccc3)c2n1
 : -2.2	-0.0055
> O=C(NCc1ccccc1)c1c(O)nc2ccccn2c1=O
 : -1.2	-0.096
> Clc1ccccc1-c1nnc(CN2CCc3ccccc32)o1
 : 2.2	-0.74
> CCn1c(=O)n(CC)c2cc(Nc3nc4ccccc4c4nncn34)c(Br)cc21
 : 4.2	-0.3

Later entries.
Order of values: BasE inh	LANA-nucl inh
> CNC(=O)CSc1nc2cc(Cl)ccc2c(=O)n1CC1CCCO1 (stereo not given)
 : 19	/
> CCc1ccccc1Nc1nc(N)nc(COC(=O)CSCc2c(C)noc2C)n1
 : -0.2	/
> CC(C)C(=O)NNc1ncccc1C(F)(F)F
 : 0.6	0.84
> O=C(c1ccc2c(c1)C(=O)N(Cc1ccncc1)C2=O)N1CCN(S(=O)(=O)c2ccc(OC(F)(F)F)cc2)CC1
 : 0.9	/
> Cn1nc(C(C)(C)C)cc1C(=O)NC1CCCCNC1=O (stereo not given)
 : -1.6	/
> CC(Oc1ccccc1)C(=O)NN1Cc2ccccc2C1=N (stereo not given)
 : -1.1	/
> O=C(c1cnn2c(C(F)F)cc(-c3ccccc3)nc12)N1CCc2ccccc21
 : -0.6	-0.44
> C=C1C(=O)O[C@@H]2[C@H]3O[C@]3(C)CC/C=C(\C)CC[C@@H]12
 : 1.1&-0.3	0.66&0.43
> Cc1ccc(C(=O)OCC(=O)Nc2ccc(N3CCOCC3)cc2)cc1
 : 2.2	/
> Cc1ccc(COc2ccc(I)cc2)cc1
 : -4.0	/
> Cc1ccc(C)n1-c1nn(S(=O)(=O)c2cccc(C(F)(F)F)c2)c2cccc(F)c12
 : -1.5	/
> CCS(=O)(=O)Nc1ccc(C(F)(F)F)cc1
 : 1.1	0.19
> CCN(CC)C(=O)CSc1nc(-c2ccc(F)cc2)nc2c1Cc1c(CO)cnc(C)c1O2
 : -3.0	0.59
> CC(=O)N1CCN=C1SCc1ccc(C)cc1
 : -0.4	0.27
> Cc1ccc(C)c(N/C=C/C(=O)C(C)(C)C)c1
 : 1.7	-1.1
> Cc1ccccc1N1C(=O)c2ccccc2C1Nc1ccc2c(c1)OCCO2 (stereo not given)
 : 2.2	-0.24
> C=CCn1c(OCc2ccccc2)n[nH]c1=S
 : 2.8	/
> CCCCOC(=O)c1cccc(NC(=O)C(C)C)c1
 : -1.7	1.4
> Cc1ccc2ncc(-c3ccc(Cl)c(C)c3)nc2c1
 : -1.1	/
> COc1ccccc1N1CCN(Cc2ccc(C(=O)NC(C)C)cc2)CC1
 : /	-0.96
> COc1ccc(CN2CCCC(C(=O)Nc3ccc(OC)c(OCC(C)C)c3)C2)cc1OC (stereo not given)
 : -0.3	-0.19
> O=C(OCCN1CCOCC1)c1ccccc1
 : -0.9	-0.62
> Cc1ccc(-n2c(O)c(/C=N/Nc3nc4cc(S(=O)(=O)N5CCOCC5)ccc4o3)c3ccccc3c2=O)c(C)c1
 : -10	/
> C=CCn1c(SCC(=O)Nc2ccc(F)cc2)nc2ccccc2c1=O
 : 0.7	-0.18
> NNC(=O)Cn1cc(C(F)(F)F)ccc1=O
 : 2.7	/
> S=C(NCCN1CCOCC1)Nc1ccc(Nc2ccccc2)cc1
 : 1.1	/
> Cc1ccc2oc(-c3cc(NC(=O)C(C)C)cc(C)c3O)nc2c1
 : -0.7	0.56
> CCN(CC(=O)NCc1ccc(F)cc1)C(=O)c1cc(=O)[nH]c2ccccc12
 : 2.1	/
> CCN1/C(=C\C(=O)C2CC2)Sc2ccccc21
 : -1.1	-0.73
> CCCc1c(O)nc(SCc2ccccc2)[nH]c1=O
 : -0.4	/

(listing goes on)
Order of values: BasE inh	LANA-nucl inh
> Cc1ccc(-c2nn3c(C)nnc3c3ccccc23)cc1S(=O)(=O)NCc1ccco1
 : 2.0	-0.8
> COc1ccc(Cc2nnc(SCC(=O)N3CCCC3)o2)cc1
 : -0.1	-1.1
> CCOC(=O)c1c(NC(=O)CSc2nnc3sc4ccccc4n23)sc(C(=O)N(CC)CC)c1C
 : -1.2	/
> CSc1nccc(-c2cccs2)n1
 : 3.9	-0.56
> CC(C)NC(=S)NNc1ccc(C(=O)O)cc1
 : 4.0	/
> Cc1nn(-c2ccccc2)c2sc(C(=O)N3CCc4ccccc4C3)cc12
 : 3.1	/
> CC1(C)CC2CC(C)(CN2c2ncnc3ccccc23)C1 (stereo not given)
 : 2.2	0.076
> CC(C)c1cccc(C(C)C)c1NC(=O)CNC(C)(C)C
 : 1.4	/
> O=c1c2ccccc2c(-c2ccc(Cl)cc2)nn1CN1CCOCC1
 : -0.7	1.3
> Nc1ccc(N2CCOCC2)cc1C(F)(F)F
 : -0.2	0.2
> c1ccc(C[n+]2cccc(-c3ccccc3)c2)cc1
 : -3.9	/
> Cc1cc(=O)oc2cc(OCC(=O)O)ccc12
 : 0.2	/
> O=C(CCc1c[nH]c2ccccc12)NCC1CCCO1 (stereo not given)
 : 1.0	/
> Cc1cc(C)n(-c2ccc(-n3cccc3/C=C(/C#N)S(=O)(=O)c3ccccc3)cc2)n1
 : 1.2	/
> COc1ccc(N2CCN(c3cc(C)nc4ccc(OC)cc34)CC2)cc1
 : 3.0	/
> Cc1cc(NC(=O)OC2CCCC2)ccc1NC(=O)OC1CCCCC1
 : 2.9	-1.1
> O=C(NCC1CCN(c2ccc(S(=O)(=O)N3CCOCC3)cc2)CC1)c1ccccc1
 : 6.2	0.67
> COC(=O)C1=CN(C)C=C(C(=O)OC)C1c1ccc(C(F)(F)F)cc1
 : 1.9	-0.26
> CCCCN(C)C(=O)Cn1cc(S(=O)(=O)NC)c(S(=O)(=O)NC)c1
 : -1.4	/
> Cc1c(C)c2ccc(O)c(CN(C)C)c2oc1=O
 : 2.4	-0.85
> O=C(NC1CCCc2ccccc21)c1ccccc1 (stereo not given)
 : 1.3	/
> CCN(CC(=O)NCc1cccs1)C(=O)c1cccc(OC)c1
 : 0.7	/
> O=S(=O)(Nc1ccc(N2CCOCC2)cc1)c1ccccc1
 : 3.8	0.48
> COc1nc(NCc2ccccc2)nc(NC2CCCCC2)n1
 : -1.2	-0.078
> COC(=O)c1ccc(NCN2C(=O)C3CC=CCC3C2=O)cc1 (stereo not given)
 : 0.8	-0.29
> CSc1ncccc1C(=O)OCCN1C(=O)c2ccccc2C1=O
 : -2.7	/
> O=C1CC2(CCN(C(=O)C3CCCC3)CC2)Oc2ccccc21
 : 1.5	-2
> Cc1ccc(S(=O)(=O)NCC(=O)NN=C2CCCCC2)cc1
 : 8.7	-0.35
> Cc1ccc(Nc2ccc3ncnc4c3c2C(=O)c2ccccc2-4)cc1
 : 2.2	/
> Cc1nc2ccccn2c1-c1ccnn1C(=O)c1ccno1
 : 3.3	/

Following part:
Order of values: BasE inh	LANA-nucl inh
> CCCCn1c(CCC)nc2ccccc21
 : -1.2	/
> Cc1nc(-c2cccs2)sc1C(=O)OCc1cc(=O)n2c(C)csc2n1
 : 2.6	/
> O=C(O)C1CC=CCC1C(=O)NCc1ccccc1 (stereo not given)
 : 1.3	-0.81
> Cc1ccc2c(c1)-c1onc(C(=O)N3CCCCC3c3cccnc3)c1CO2 (stereo not given)
 : 1.2	-1
> O=C(O)CSCc1ccc(Cl)c(Cl)c1
 : 0.7	/
> CCCN1CCC(NCc2ccc(Br)cc2)CC1
 : -0.7	-0.49
> Cc1ccc(NC(=O)c2ccc(F)cc2)c(C)c1
 : 0.7	/
> CCC(C)(C)n1nnnc1CN(Cc1ccccc1)Cc1cc2cc(OC)ccc2[nH]c1=O
 : -2.1	-0.31
> O=S(=O)(/N=C/c1c(O)ccc2ccccc12)c1ccccc1
 : 5.9	/
> O=C(O)c1nonc1NCn1nnc2ccccc21
 : 22	-1.4
> O=c1c(O)c(-c2cccs2)oc2ccccc12
 : 5.9	-0.43
> Cc1cnc(C(=O)Nc2nc3ccccc3[nH]2)cn1
 : 1.8	/
> Clc1ccc(Oc2cnns2)c2ccccc12
 : /	-0.4
> O=C(CCCN1C(=O)c2ccccc2C1=O)OCc1nc2ccc(Cl)cc2n1CCO
 : -4.4	/
> CC(C)=C1C(=O)Nc2ccc(S(=O)(=O)N(CC(C)C)CC(C)C)cc21
 : 0.0	/
> O=C(Nc1ccc(N2C(=O)CCC2=O)cc1Cl)C1CCCCC1
 : 0.9	0.9
> CSc1nnc(CCNC(=O)c2ccc3c(c2)OCO3)n1C
 : 0.8	0.089
> COC(=O)c1cnc(NNC(=O)Cc2ccccc2)nc1C(F)(F)F
 : 2.7	-0.16
> O=C(NCCC1=CCCCC1)c1cc(-c2ccccc2)n[nH]1
 : -2.7	-1.2
> COC(=O)c1ccc(/C=N/N2C(C)CCCC2C)cc1 (stereo not given)
 : -0.2	/
> CC(NCc1ccccc1)c1cc(Cl)ccc1O (stereo not given)
 : 0.1	-0.14
> Cc1ccc(NC(=O)CC2SC3=NCCN3C2=O)cc1 (stereo not given)
 : 0.9	0.44
> COc1ccc2c(C)nc(N=C(NC(C)=O)NC(C)=O)nc2c1
 : 1.4	-0.48
> CCc1cc2c(COC(=O)c3ccc4c(c3)OCCO4)cc(=O)oc2cc1O
 : 1.1	/
> C=CCc1c(C)[nH]n(-c2ccc(C(=O)O)cc2)c1=O
 : -0.5	1.2
> CCn1c(C(=O)N2CCC(C(=O)NCc3ccc(C)cc3)CC2)cc2occc21
 : -1.8	0.2
> O=C(Nc1ccc(Cl)cc1)C1=NS(=O)(=O)c2ccccc2N1
 : 0.4	0.073
> COc1ccc(O)c(C(=O)c2cnn(-c3ccc(Cl)cc3)c2)c1
 : 2.8	/
> CC(=O)N1CCN(C(=O)c2ccc(-n3c(C)ccc3C)cc2)CC1
 : 1.6	/
> CC(OC(=O)Cc1n[nH]c(=O)c2ccccc12)C(=O)Nc1ccc(Cl)cn1 (stereo not given)
 : 2.2	/

Entries of single compounds as entered above. Values in the order: BasE inh | LANA-nucl inh
COc1ccc2c(C)nc(N=C(NC(C)=O)NC(C)=O)nc2c1 reads 1.4 | -0.48
CC(NCc1ccccc1)c1cc(Cl)ccc1O (stereo not given) reads 0.1 | -0.14
Cc1ccc2c(c1)-c1onc(C(=O)N3CCCCC3c3cccnc3)c1CO2 (stereo not given) reads 1.2 | -1
CC(C)=C1C(=O)Nc2ccc(S(=O)(=O)N(CC(C)C)CC(C)C)cc21 reads 0.0 | /
O=c1c(O)c(-c2cccs2)oc2ccccc12 reads 5.9 | -0.43

(cont.)
Order of values: BasE inh	LANA-nucl inh
> N=C(N)c1ccc(C(N)=O)cc1
 : 1.6	/
> O=S(=O)(Nc1cccc(Br)c1)c1ccc(Br)s1
 : 0.4	0.13
> O=C(O)c1sccc1-c1ccccc1
 : 0.8	/
> CCOC(=O)N1CCN(CCC(=O)Nc2cccc(Cl)c2C)CC1
 : -0.8	-1.2
> Cc1csc(SCc2c(C(=O)Oc3ccc(-n4cnnn4)cc3)oc3ccccc23)n1
 : 1.6	/

An excerpt; rates above refer to the full screens.
